Screening results (PubChem BioAssay)
miR-21 FLuc = miR-21 reporter, rising signal | HeLa miR-21 FLuc reporter, luciferase, 48 h | Potency, µM (doses to about 38.3 µM), for the others: at the highest dose reporter change, positive = more light | 340,000 tested, under 10 active; active = well fitted rising curve with a large enough effect; inconclusive = small, poorly fitted or top-dose-only effect; inactive = no such curve, though single readings can be large or run the other way;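 also: % of control where 0% means no effect; miR-21 action dims this reporter so a rising signal means less miR-21 action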
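Using DMEM plus 10% FBS, HeLa miR-21-FLuc cells are incubated with test compounds (final up to about 40uM) for 48 hours; firefly luciferase signal is then imaged following reagent-mediated lysis.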
Rango dissoc inh = inhibitors of RanGTP-induced Rango-importin beta complex dissociation; Biochemical FRET Rango-importin beta, RanGTP-induced dissociation; Potency, µM (titrated, usually from 46.1 µM), for the others: top-dose activity change, negative = inhibition; 340,000 compounds, 0.071% hits; AID 540253; active means falling FRET ratio curve, often poorly fitted, with flat reads before Ran was added; inconclusive means other falling curves, or compound fluorescence or quenching; inactive means flat or rising ratio curve;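 also: potency is read from the fitted curve at half-maximal effect; % of control where 0% means no effect; nearly all actives have a fitted effect of over 45% in size; -100% = wells without RanGTP and RCC1; the record marks most hits as doubtful in a second field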
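Rango FRET biosensor (snurportin-1 IBB flanked by N-terminal EYFP and C-terminal CFP10) at 0.1 uM, with 0.25 uM importin beta in PBS, 1mM DTT, 0.02% Tween-20, 0.1% BSA. 0.6 uM Ran, 2mM GTP and 0.2 uM RCC1 were then added for 45 min at room temperature. Inhibition read as loss of FRET rise.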
Rango-impB inh = prevents formation of the Rango-importin beta complex; Q14974; 340,000 compounds, 0.031% hits; AID 540263; Rango CFP/YFP FRET sensor + importin beta, 45 min; Potency, µM (series often up to 92.2 µM), inactives show at the highest dose inhibition of complex formation; active = rising FRET ratio curve, often small or poorly fitted; inconclusive = mostly compound fluorescence or quenching in the first reads; inactive = flat curves in all reads;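 also: potency is read from the fitted curve at half-maximal effect; 0% = DMSO wells and 100% = buffer wells lacking importin beta; nearly all actives have a fitted effect of over 15% in size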
Target sequence (Q14974 whole entry, looked up): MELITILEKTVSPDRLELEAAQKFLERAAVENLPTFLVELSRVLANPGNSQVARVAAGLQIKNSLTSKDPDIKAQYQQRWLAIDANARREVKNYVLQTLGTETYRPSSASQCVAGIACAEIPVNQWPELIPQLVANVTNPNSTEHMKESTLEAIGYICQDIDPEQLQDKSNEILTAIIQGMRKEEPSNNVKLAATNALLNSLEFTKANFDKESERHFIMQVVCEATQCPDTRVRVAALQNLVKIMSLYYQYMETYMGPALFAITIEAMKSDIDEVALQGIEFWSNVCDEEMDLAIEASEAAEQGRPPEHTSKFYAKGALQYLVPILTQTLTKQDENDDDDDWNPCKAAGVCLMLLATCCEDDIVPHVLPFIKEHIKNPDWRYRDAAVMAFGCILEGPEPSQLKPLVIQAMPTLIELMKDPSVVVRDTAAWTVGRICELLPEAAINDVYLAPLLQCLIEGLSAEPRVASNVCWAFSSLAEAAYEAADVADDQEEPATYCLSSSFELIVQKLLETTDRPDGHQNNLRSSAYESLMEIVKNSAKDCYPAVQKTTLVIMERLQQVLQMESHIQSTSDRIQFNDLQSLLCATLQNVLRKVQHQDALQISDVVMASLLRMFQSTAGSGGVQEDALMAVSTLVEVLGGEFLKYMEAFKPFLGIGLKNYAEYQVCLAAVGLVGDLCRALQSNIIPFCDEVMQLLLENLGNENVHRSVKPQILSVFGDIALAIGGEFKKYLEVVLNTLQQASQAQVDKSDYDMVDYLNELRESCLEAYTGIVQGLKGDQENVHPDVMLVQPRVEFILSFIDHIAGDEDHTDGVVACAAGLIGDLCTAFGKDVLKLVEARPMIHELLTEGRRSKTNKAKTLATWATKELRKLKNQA
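Inhibition scored from the CFP 486 nm/YFP 530 nm FRET ratio 45 min after adding 0.125 microM importin beta to 50 nM Rango biosensor preincubated 5 min with compound (room temperature, PBS with DTT, Tween-20, BSA). No-importin wells as positive control.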
GLA inh pH 4.5 = alpha-galactosidase A (human) inhibition, pH 4.5; P06280; purified enzyme, 4-MU-alpha-Gal fluorescence, pH 4.5; activity change, negative = inhibition, % at 105 µM; 230,000 tested, under 10 active; AID 1467; inconclusive = small, poorly fitted or top-dose-only inhibition, or a rising curve; inactive = flat fitted curve, though single readings scatter; no compound was filed as active;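 also: 0% = full activity with enzyme and -100% = basal without enzyme; dose as in the result columns while the protocol names 77 µM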
* marks the source's active call; other numbers are inactive results; ? = inconclusive; · = not tested or not shown; & = joins results of further samples; [ ] = remark or other dose. This is a subset, so the mix of outcomes need not match the whole.

The line under a structure holds: GLA inh pH 4.5 | Rango-impB inh | miR-21 FLuc | Rango dissoc inh
- Cc1ccccc1C(=O)NCC(=O)O
 : · | 1.4% | -0.8% | -2.7%
- CN(C)C(=O)c1ccc(NC(=O)CC2SC(N3CCCC3)=NC2=O)cc1 (stereo not given)
 : · | 4.3% | · | ?
- COc1ccc(C(=O)NCC(=O)c2ccccc2)cc1
 : · | 3.8% | -27.6% | 1.3%
- CC(NC(=O)c1ccccc1F)c1nnc(SCc2nc3ccccc3c(=O)[nH]2)n1C (stereo not given)
 : -5.8[21.1 µM] | 1.1% | -0.1% | 3.2%
- COc1cccc(CN2CCC(Oc3ccc(C(=O)N4CCCCC4)cc3)CC2)c1O
 : · | 2.4% | 0.2% | -4.1%
- COc1cc2ncnc(NCc3ccc(Cl)cc3)c2cc1OC
 : ? | 4.8% | -5.8% | 1.4%
- Cn1c(CSCc2ccccc2Cl)n[nH]c1=S
 : 0.9 | -3.5% | -0.5% | -0.3%
- CN(C)c1ccc(C2Nc3cccc4cccc(c34)N2)cc1
 : · | 1.7% | -9.2% | 11.1%
- O=C1CC(C(F)(F)C(F)(F)C(F)(F)C(F)F)=Nc2ccccc2N1
 : 7.1 | 0.6% | -13.4% | 17.0%
- O=C(N=Nc1c(O)[nH]c2ccc(Br)cc12)c1cc(-c2cccs2)nc2ccccc12
 : 3.2 | 5.2% | 1.0% | -3.2%
- COc1ccc(S(=O)(=O)N2CCN(CC(=O)Nc3ccccc3OC)CC2)cc1
 : · | 8.4% | 3.4% | -14.4%
- NS(=O)(=O)c1ccc(CNS(=O)(=O)c2cc(Cl)ccc2Cl)cc1
 : 4.0 | 0.2% | 0.1% | -7.6%
- CCC(=O)Nc1cccc(C(=O)c2ccccc2)c1
 : 4.2 | 0.9% | -16.0% | 9.8%
- NC(=O)CCC(NC(=O)c1ccc(Cl)cc1)C(=O)O (stereo not given)
 : -0.4 | -2.1% | 0.8% | 8.2%
- CCOC(=O)c1ccccc1-c1csc(NS(=O)(=O)c2ccc(Cl)cc2)n1
 : -0.4 | 4.8% | -1.8% | 9.0%
- COc1ccc(CCC(=O)Nc2nnc(C)s2)cc1
 : · | -1.8% | · | 1.1%
- CCCN(CCC)CCNC(=O)C1CCN(Cc2nc(-c3ccc(Cl)cc3)oc2C)CC1
 : 1.5 | 2.0% | -7.2% | -7.5%
- Cc1n[nH]c(=O)n1-c1cccc(C(F)(F)F)c1
 : -3.0 | 0.2% | -4.9% | 7.6%
- CCOc1ccc(/C=N/NC(=O)c2ccc(O)cc2)cc1CN1CC2CC(C1)c1cccc(=O)n1C2 (stereo not given)
 : · | 1.5% | · | -9.4%
- CN(Cc1ccnc2ccccc12)C(=O)C1CCC(=O)N(Cc2ccccc2F)C1 (stereo not given)
 : · | -1.1% | -2.8% | -10.8%
- CNC(=S)NC1CC2CCCC(C1)N2Cc1ccc(C)cc1 (stereo not given)
 : -2.6 | 0.4% | -2.0% | 8.3%
- Cn1c(=O)c2c(nc(Cc3ccccc3)n2C)n(C)c1=O
 : -0.5 | 3.2% | 2.7% | 2.3%
- Cc1ccccc1NC(=O)c1cc[n+]([O-])cc1
 : · | -0.5% | 0.8% | 7.6%
- CCc1nc(SCc2ccc(OCC(C)C)cc2)n[nH]1
 : · | 2.9% | -9.5% | -12.1%
- Cc1ccc(Nc2cc(C)nc3ncnn23)c(C)c1
 : · | 4.9% | -7.3% | -1.1%
- CC12CCC(C(=O)NNc3ccccc3)(C(=O)C1=O)C2(C)C (stereo not given)
 : 7.5 | 0.8% | -2.6% | -3.8%
- COc1ccccc1NC(=O)Nc1cccc(C)n1
 : · | -1.1% | -14.0% | -16.5%
- CSc1nnnn1-c1ccc(C(=O)O)cc1
 : 2.6 | 2.0% | -4.6% | -2.0%
- COc1ccc(OCC(=O)Nc2ccc3nc(C)sc3c2)cc1
 : 0.6 | 2.8% | -7.8% | -19.3%
- Cc1ccc(S(=O)(=O)NCc2ccccc2)cc1C(=O)N1CCCC(C(F)(F)F)C1 (stereo not given)
 : · | -3.1% | · | 11.2%
- CCCCNc1c(-c2ccc(-c3cccc(Cl)c3)cc2)nc2ccc(Cl)cn12
 : · | ? | · | ?
- CCN(C(=O)c1ccc(NC(C)=O)cc1)c1ccccc1
 : -2.3 | 3.8% | -1.0% | -1.5%
- COc1cc(OC)cc(C(=O)N2CCCc3ccccc32)c1
 : -1.6 | -6.7% | -26.2% | -0.8%
- Cc1cc(C)cc(SCc2noc(C(=O)NCCN(C)C)c2C(=O)NCCN(C)C)c1
 : · | 2.9% | · | 7.0%
- CC(C(=O)Nc1ccc(N2CCOCC2)cc1)N1C(=O)NC(C)(C)C1=O (stereo not given)
 : · | 3.8% | · | 14.9%
- S=C(NCc1ccncc1)Nc1ccc(Cl)c(Cl)c1
 : -5.4 | 0.3% | 28.0% | 0.7%
- Cc1ccccc1N(CC(=O)NC1CCCC1)C(=O)C1(C)CC(=O)N=C2C=CC=CN21 (stereo not given)
 : 15.0 | -0.8% | -5.4% | 0.4%
- Cc1cc(C(=O)Nc2ccc(S(=O)(=O)N3CCCC3)cc2)cs1
 : -5.5 | 1.2% | -0.2% | 8.9%
- CCCNC(=O)N[C@@H](CCSC)C(=O)OC
 : 5.2 | 4.4% | -1.6% | -17.9%
- Cc1cc(Cl)nc(Cl)c1C(=O)NC(=O)NCCC(C)C
 : 1.8 | -0.3% | -1.5% | 7.7%
- CC(C)(C)NC(=O)COC(=O)c1cncc(Br)c1
 : 5.8 | -1.7% | 0.2% | 6.6%
- O=C(c1ccc2c(c1)OCCO2)N1CCN(Cc2c(F)cccc2Cl)CC1
 : · | 0.2% | · | -11.6%
- CCCSCCCNC(=O)CN1C(=O)COc2ccc(S(=O)(=O)N3CCCC3)cc21
 : · | 1.8% | -1.4%&4.2% | 11.9%
- O=C(O)CC(C(=O)Nc1ccc(F)cc1)C1CCCO1 (stereo not given)
 : 2.4 | 0.0% | 3.2% | 22.6%
- COc1ccc(N(CC(=O)Nc2ccc(Cc3ccncc3)cc2)S(=O)(=O)c2ccccc2)cc1
 : · | 0.7% | 13.6% | 0.4%
- Cc1cc(C)cc(C(=O)Nc2cccnc2)c1
 : · | 0.1% | -7.2% | 4.9%
- CCOc1ccc(-n2c(SCC(=O)Nc3ccc(CC)cc3)nc3n[nH]c(C)c3c2=N)cc1
 : 5.3 | -0.2% | 1.4% | 7.5%
- O=C(NNS(=O)(=O)c1ccccc1)C(O)(c1ccccc1)c1ccccc1
 : 5.3 | 0.7% | 0.6% | 15.6%
- CCC(C)NC(=O)c1cnc2n(c1=O)CCS2 (stereo not given)
 : 6.8 | -7.4% | -8.7% | 8.8%
- COCCCNC(=O)c1c(N)n(/N=C/c2ccccn2)c2nc3ccccc3nc12
 : -16.0 | -3.8% | 3.3% | -15.7%
- CCCCNC(=O)c1cc(-c2ccc(F)cc2)on1
 : -9.7 | -2.0% | -83.9% | -8.5%
- Cc1nc2ccc(S(=O)(=O)NCC(=O)N3CCc4ccccc4C3)cc2s1
 : 5.4 | -1.2% | -2.2% | -7.3%
- O=C(O)CSc1ncccc1C(=O)O
 : 2.6 | -2.3% | -2.0% | 13.1%
- NC(=O)c1nn(-c2ccccc2)nc1NC(=O)Cn1nnc(-c2ccccc2)n1
 : 2.6 | -1.7% | -43.7% | -4.4%
- CN(C)CCCNc1nc(-c2ccccc2)nc2ccccc12
 : -4.5 | ? | -19.0% | ?
- CCn1c(CSCc2ccccc2)n[nH]c1=S
 : 2.7 | 0.1% | -2.7% | -9.1%
- C#CCn1c(=NC(=O)CSC(C)=O)sc2cc(F)ccc21
 : 11.2 | -3.4% | -4.8% | 0.8%
- Cc1ccc(SCc2[nH]nc3c2C2(C(=O)Nc4ccc([N+](=O)[O-])cc42)C(C#N)=C(N)O3)cc1 (stereo not given)
 : -2.6 | -1.7% | 9.9% | 0.4%
- CN(C)C(CNC(=S)Nc1ccc(F)cc1)c1cccnc1 (stereo not given)
 : 3.3 | 0.7% | -0.6% | 1.2%
- O=C(Nc1n[nH]c(C(F)(F)F)n1)c1cccs1
 : -3.0 | 3.9% | -0.6% | 3.0%

4 successive compounds already listed, quoted:
The line under a structure holds: GLA inh pH 4.5 | Rango-impB inh | miR-21 FLuc | Rango dissoc inh
- C#CCn1c(=NC(=O)CSC(C)=O)sc2cc(F)ccc21
 : 11.2 | -3.4% | -4.8% | 0.8%
- Cc1ccc(SCc2[nH]nc3c2C2(C(=O)Nc4ccc([N+](=O)[O-])cc42)C(C#N)=C(N)O3)cc1 (stereo not given)
 : -2.6 | -1.7% | 9.9% | 0.4%
- CN(C)C(CNC(=S)Nc1ccc(F)cc1)c1cccnc1 (stereo not given)
 : 3.3 | 0.7% | -0.6% | 1.2%
- O=C(Nc1n[nH]c(C(F)(F)F)n1)c1cccs1
 : -3.0 | 3.9% | -0.6% | 3.0%

(further entries)
The line under a structure holds: GLA inh pH 4.5 | Rango-impB inh | miR-21 FLuc | Rango dissoc inh
- c1ccc(C2=Nn3c(Cn4nnc5ccccc54)nnc3SC2)cc1
 : 2.1 | -3.0% | -16.2% | 25.3%
- O=C(COc1ccc(Br)cc1)Nc1ccccc1C(=O)NC1CC1
 : · | 9.7% | · | 16.2%
- CN1CCN(C(=O)c2cc3nc(-c4ccccc4)cc(C(F)(F)F)n3n2)CC1
 : -1.4 | 2.1% | 5.6% | 18.6%
- CC(C)CCN1C(=O)c2ccc(C(=O)N3CCCCC3)cc2C1=O
 : · | -1.7% | · | -6.5%
- CC1Cc2ccccc2N1C(=O)CN1C(=O)COc2ccccc21 (stereo not given)
 : 0.6 | 5.5% | -3.8% | -11.7%
- CCc1ccc(-c2cc(C)no2)cc1S(=O)(=O)NCCc1ccc(S(N)(=O)=O)cc1
 : · | -1.2% | 5.0% | 12.4%
- NC(=O)NC(CC(=O)NNC(=O)c1ccccn1)c1ccccc1Cl (stereo not given)
 : · | 0.0% | · | -3.0%
- CCCC(=O)Nc1nc(-c2ccc(OC)cc2)cs1
 : -13.9 | -6.4% | -28.7% | 20.3%
- O=C(CSc1ccc(Cl)cc1)NCC1CCCO1 (stereo not given)
 : 1.6 | -1.1% | -18.6% | -4.2%
- CCN(CC)S(=O)(=O)c1cccc(NC(=O)COC(=O)C2CC3C=CC2C3)c1 (stereo not given)
 : 1.4 | -6.0% | 2.9% | 34.5%
- Cc1cccn2cc(CNC(=O)c3ccc(Br)o3)nc12
 : 5.2 | 1.7% | -2.6% | 8.3%
- COc1ccc2nccnc2c1[N+](=O)[O-]
 : 5.2 | 0.7% | -7.8% | -6.3%
- CCN(CC)S(=O)(=O)c1ccc(C(=O)Nc2cc(C)on2)cc1
 : · | 2.2% | -1.4% | 9.9%
- Cc1nc2cc(N)ccc2n1C1CCCCC1
 : 1.9 | ? | -3.6% | -28.9%
- COC(=O)c1ccc(COC(=O)C(CCS(C)(=O)=O)N2C(=O)c3ccccc3C2=O)cc1 (stereo not given)
 : 2.3 | -3.4% | -2.6% | 1.6%
- CCOC(=O)c1c(N)n(CCOC(=O)c2cccs2)c2nc3ccccc3nc12
 : ? | ? | -1.9% | ?
- CCOC(=O)c1cc(NC(=O)COC)ccc1O
 : 4.2 | · | -0.4% | ·
- O=C(COc1ccc(Cl)cc1)N(Cc1ccco1)C1CCS(=O)(=O)C1 (stereo not given)
 : 3.0 | 2.5% | -1.3% | 15.7%
- CCN1CCN(C(=O)CN2C(=O)COc3ccc(C)cc32)CC1
 : · | -2.0% | -1.3% | -15.6%
- CCCN1C(=S)SC(C)(C)C1/[N+]([O-])=C/c1ccc(S(=O)(=O)NC)cc1 (stereo not given)
 : -0.3 | 2.4% | 0.6% | 6.1%
- COc1ccc(N2C(=O)C3CCCN3C2c2ccc(Cl)cc2)cc1 (stereo not given)
 : -0.3 | 3.8% | -7.4% | 3.3%
- CCOc1cccc(/C=N/NC(=O)c2ccc3c(c2)OCCO3)c1O
 : · | -1.3% | 10.2% | -3.1%
- COCCn1nnnc1C(c1cc2cc(C)ccc2[nH]c1=O)N1CCCCCC1 (stereo not given)
 : -5.7 | -0.1% | 0.4% | 9.3%
